Bioassay records from PubChem BioAssay.
Beta2AR agonist = agonists of human beta-2 adrenergic receptor inducing internalization | P07550 | Am2.2-beta2AR cells, FAP receptor internalization, flow cytometry; reference of the scale not given here | response, % (no concentration beside the values) | actives 0.43% (n = 340,000);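 active = response above a set limit, near 3 SD of response in nonfluorescent compounds, cut at about 42% in these data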;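 also: stock transfer was 100 nL into about 11 µL; a reference agonist was the positive control; negative values mostly stem from fluorescent compounds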
Target sequence (P07550 whole entry, looked up): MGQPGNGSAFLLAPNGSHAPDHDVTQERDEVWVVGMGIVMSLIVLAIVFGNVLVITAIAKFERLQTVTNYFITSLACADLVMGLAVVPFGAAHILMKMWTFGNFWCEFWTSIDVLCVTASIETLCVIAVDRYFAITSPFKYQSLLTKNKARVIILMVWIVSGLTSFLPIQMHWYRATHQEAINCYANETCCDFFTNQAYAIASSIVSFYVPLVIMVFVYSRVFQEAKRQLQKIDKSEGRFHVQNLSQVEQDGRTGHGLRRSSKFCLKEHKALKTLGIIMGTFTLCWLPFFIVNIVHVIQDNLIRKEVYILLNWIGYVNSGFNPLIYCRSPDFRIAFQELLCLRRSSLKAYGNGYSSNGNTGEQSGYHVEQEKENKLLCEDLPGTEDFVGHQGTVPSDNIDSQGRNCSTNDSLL
Bfl-1 A1 inh = inhibitors of the anti-apoptotic protein A1, read as caspase activation; caspase activation, % (concentration not given with the values); MEF A1-2A-BIM cells, Caspase-Glo 3/7 luminescence, 3 h; percent of clofoctol response, vehicle zero; actives 0.066% (n = 330,000); AID 2462;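 active = over half of replicate activation scores above 10%, or exactly half above 10 with the replicate mean above 10; inconclusive = replicate mean below 10 yet half the replicates above 10; inactive = over half of replicates below 10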;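 also: wells of about 30 µL received 50 nL stock; many hits fall short of the cut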
Calb FLC = affects C. albicans growth with fluconazole; C. albicans CaCi-2 (fluconazole-resistant clinical isolate) + fluconazole, Alamar Blue growth, 48 h; growth inhibition, % (concentration not given with the values); actives 0.57% (n = 300,000); AID 1979;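 active = most replicates above 75%; inconclusive = exactly half above 75%; inactive = most below 75%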;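 also: all wells also contain fluconazole at 8 µg/ml as a sub-toxic cotreatment; 0% = median of DMSO wells and 100% = median of geldanamycin control wells; wells of about 8 µL received 7.5 nL stock; the first replicate is given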
LANA-H2A inh = blocks KSHV LANA binding to histone H2A/H2B; cell-free LANA-H2A/H2B peptide, fluorescence polarization; inhibition, % (no concentration beside the values); actives 0.6% (n = 320,000); in the data active = inhibition mostly above about 10%, no sharp cut-off; inactive = mostly below about 6.7%;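 also: stock transfer was 7.5 nL into about 10 µL; 0% = median of vehicle wells and 100% = median of positive control wells; one replicate is shown; the record names a cut of 25% in any replicate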
Beta cell apopt = beta cell apoptosis inhibition; protection from apoptosis, % (no concentration beside the values); INS-1E cytokine-induced death, ATP luminescence, 48 h; percent of positive-control rescue, neutral wells zero; actives 0.8% (n = 300,000);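 active = all replicates at 75% or more, or half of them and the mean; inconclusive = half reach 75% but not the mean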;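 also: 0% = cytokine-treated negative control wells and 100% = positive control rescue; higher means more ATP so stronger rescue from cytokine killing; wells of about 40 µL received 100 nL stock; the first replicate is given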
T cruzi repl = T. cruzi replication inhibition; T. cruzi beta-gal in NIH3T3, luminescence, 90 h; inhibition, % (test concentration not listed); actives 1.4% (n = 300,000); AID 1885;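 active = mean inhibition across valid replicates above about 55%, limit read from the data; inconclusive = mean below that limit but half or more replicates reach it; inactive = mean below it, under half of replicates reach it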;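 also: signal also drops with host cell toxicity which is not excluded here; 0% = plate median of DMSO wells and 100% = zero luminescence signal; higher percent means less beta-gal luminescence so fewer parasites; stock transfer was 50 nL into about 50 µL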
ALR H2O2 inh = human ALR oxidase inhibition via reduced H2O2. P55789. purified ALR, DTT oxidation, H2O2 HRP-luminol luminescence. inhibition, % (test concentration not listed). actives 3.8% (n = 290,000). AID 485317;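 active = mean and each replicate at 75% or more; inconclusive = only one of the two met; inactive = neither met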;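 also: stock transfer was 7.5 nL into about 7.5 µL; 0% = neutral wells and 100% = wells with inactivated enzyme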
Target sequence (P55789 whole entry, looked up): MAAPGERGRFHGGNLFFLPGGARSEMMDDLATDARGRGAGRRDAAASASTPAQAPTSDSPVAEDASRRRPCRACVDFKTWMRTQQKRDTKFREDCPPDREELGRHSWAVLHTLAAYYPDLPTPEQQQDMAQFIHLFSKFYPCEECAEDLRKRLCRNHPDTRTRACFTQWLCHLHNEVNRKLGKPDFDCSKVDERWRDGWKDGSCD
rRNA inh HTS = inhibits bacterial ribosomal RNA function over humanized ribosomes; GFP signal change (wild-type ribosome), % (test concentration not listed); actives 1.6% (n = 350,000); E. coli WT GFP vs humanized-ribosome RFP mutants, fluorescence, 24 h; hits give low values; DMSO median 0, no signal -100;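 active = significant combined selectivity score with lowered wild-type GFP, culture density cut under 30%, mutant RFP and density less affected; inactive = any of these conditions unmet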; also: one replicate is shown; some compounds called inactive have numbers as strong as hits
rRNA inh HTS OD600 = recorded beside rRNA inh HTS, whose call it bears; OD600 change, %; measured here: OD600 growth;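 optical density of the mix in the first replicate; 0 = DMSO median and -100 = no signal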
rRNA inh HTS RFP = recorded beside rRNA inh HTS, whose call it bears; RFP signal change, %; measured here: RFP humanized mutant strains;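 first replicate; 0 = DMSO median and -100 = no signal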
* hit, by the source's call; ? = inconclusive; nt = no result given. Not all compounds are listed; rates above refer to the full screens.

The first 2 records, to show the layout:
SMILES | Beta2AR agonist | Bfl-1 A1 inh | Calb FLC | LANA-H2A inh | Beta cell apopt | T cruzi repl | ALR H2O2 inh | rRNA inh HTS | rRNA inh HTS OD600 | rRNA inh HTS RFP
COc1ccc(C)cc1S(=O)(=O)N1CCN(c2ccccc2)CC1 | 2 | 0.0 | 1 | 4.9 | -2 | 11 | 11 | -3 | -12 | 2.0
Cc1ccc(SCC(=O)OCC(=O)N(CC(C)C)c2c(N)n(Cc3ccccc3)c(=O)[nH]c2=O)c(C)c1 | -4 | -0.5 | -1 | -0.3 | 6 | -4 | 5 | 9 | 4 | -0.3

Results, previewed entries included:
SMILES | Beta2AR agonist | Bfl-1 A1 inh | Calb FLC | LANA-H2A inh | Beta cell apopt | T cruzi repl | ALR H2O2 inh | rRNA inh HTS | rRNA inh HTS OD600 | rRNA inh HTS RFP
COc1ccc(C)cc1S(=O)(=O)N1CCN(c2ccccc2)CC1 | 2 | 0.0 | 1 | 4.9 | -2 | 11 | 11 | -3 | -12 | 2.0
Cc1ccc(SCC(=O)OCC(=O)N(CC(C)C)c2c(N)n(Cc3ccccc3)c(=O)[nH]c2=O)c(C)c1 | -4 | -0.5 | -1 | -0.3 | 6 | -4 | 5 | 9 | 4 | -0.3
N#CCc1ccc(C(=O)c2ccccc2)s1 | -11 | 0.0 | 10 | -3.0 | 1 | 27 | nt | nt | nt | nt
O=C(NC1CCN(Cc2ccccc2Cl)CC1)c1ccccc1 | 15 | 0.1 | -14 | 1.5 | -6 | -2 | -5 | 9 | 10 | -2.6
CC(C)C(=O)Nc1ccc(NC(=O)c2cccs2)cn1 | -14 | 0.4 | 6 | 1.1 | -1 | 5 | -17 | nt | nt | nt
COC(=O)C1=C(C)N(Cc2ccccc2)C(=O)N[C@H]1c1cccc(F)c1 | 0 | -0.4 | 0 | -3.3 | -15 | -11 | 9 | 17 | 12 | 2.0
Cc1ccc(CC(=O)NCCc2ccc(S(N)(=O)=O)cc2)cc1 | 2 | -0.3 | -7 | 1.2 | -7 | 4 | 8 | 12 | 4 | 15
COc1cccc(NC(=O)/C=C/c2ccccc2[N+](=O)[O-])c1 | 1 | -15 | 0 | 1.7 | -3 | -13 | nt | -57 | -67 | -31
CCOc1ccc(C(C)C)cc1S(=O)(=O)n1ccnc1C | -3 | 0.6 | 14 | -2.0 | 1 | -3 | 6 | 14 | 6 | -10
CC(C)(C)c1ccc(C(=O)Nc2ccc(C(=O)N3CCOCC3)cc2)cc1 | 16 | -0.3 | 7 | -3.1 | 1 | 0 | -1 | -2 | -3 | -1.3
COc1ccccc1C(=O)NCC(=O)NNC(=O)c1cccs1 | 3 | -0.9 | nt | 0.6 | 0 | nt | -3 | 8 | 6 | -2.7
Cc1ccc2nsnc2c1S(=O)(=O)NC1CC1 | -5 | -0.4 | 5 | -2.8 | 0 | -4 | -2 | nt | nt | nt
Cc1ccc2[nH]c(=O)c(-c3noc(C(C)C)n3)cc2c1 | -13 | 0.1 | -9 | 1.6 | 0 | -2 | -22 | -6 | 5 | -0.4
O=C(O)c1ccc(S(=O)(=O)NCc2ccc3c(c2)OCO3)cc1 | 12 | 0.7 | 3 | -2.6 | 6 | -4 | 0 | 3 | 3 | -1.1
CCc1ccc(-c2cc(C(=O)O)c3ccccc3n2)s1 | 16 | -9.7 | -10 | 2.9 | 7 | -6 | 18 | -7 | -5 | 4.9
Cc1ccc(-c2csc3nc(C)n(-n4cccc4)c(=O)c23)o1 | -19 | -0.1 | -2 | 0.7 | 3 | 1 | 3 | nt | nt | nt
CC1(C)CC(=O)C2=C(C1)NC(SCC(=O)Nc1ccccc1)=C(C#N)C21CCCCC1 | 2 | 0.3 | -2 | -2.1 | 21 | 28 | -2 | nt | nt | nt
O=C(/C=C/Nc1ccc([N+](=O)[O-])cc1Br)c1cccc2ccccc12 | -1 | -6.0 | -1 | -20 | -2 | 18 | -10 | nt | nt | nt
CC(C)C(NC(=O)c1ccccc1F)C(=O)NCC(c1ccco1)N1CCCCC1 (configuration not stated) | -4 | 0.5 | nt | -1.9 | -1 | nt | -1 | 3 | 6 | 8.1
COC(=O)CC1C(=O)NCCN1C(=O)CSc1nc2ccc([N+](=O)[O-])cc2s1 (configuration not stated) | -3 | -0.4 | -1 | -0.7 | -4 | 14 | -42 | -7 | -10 | -5.5
CCN(CC)S(=O)(=O)c1ccc2[nH]cc(C(=O)NCCC3=CCCCC3)c(=O)c2c1 | -10 | -0.7 | 5 | 4.3 | 0 | 8 | -6 | nt | nt | nt
O=C(NCc1ccc(Cl)s1)c1cc(COc2c(F)cccc2F)on1 | -8 | -0.2 | 1 | -5.4 | 1 | 24 | -43 | -8 | 1 | -3.3
Cc1c(Oc2ccc(C(F)(F)F)cc2[N+](=O)[O-])ccc2c3c(c(=O)oc12)CCC3 | -2 | 1.8 | -7 | 0.5 | -4 | 17 | -3 | nt | nt | nt
CN(CC(=O)Nc1ccccc1Br)c1ncnc2sccc12 | -10 | 0.5 | 39 | 3.1 | 3 | -2 | -4 | -8 | -15 | -3.5
CCN(c1ccc(NC(=O)COC(=O)CCc2nc3ccccc3n2-c2ccccc2)cc1)C(C)C | -3 | 0.6 | -5 | 2.4 | -6 | 8 | 23 | -13 | -22 | -8.2
(next part)
SMILES | Beta2AR agonist | Bfl-1 A1 inh | Calb FLC | LANA-H2A inh | Beta cell apopt | T cruzi repl | ALR H2O2 inh | rRNA inh HTS | rRNA inh HTS OD600 | rRNA inh HTS RFP
CCOc1cc(C)c(Cl)cc1S(=O)(=O)NCc1ccc2c(c1)OCO2 | 3 | -0.1 | -3 | 2.1 | 2 | 2 | nt | nt | nt | nt
O=C(NNC(=S)NC1CC2C=CC1C2)c1ccncc1 (configuration not stated) | -8 | -0.4 | -2 | 11 | -6 | -10 | 16 | 4 | 16 | 0.7
Cc1nnc(SCC(=O)Nc2cc(C(F)(F)F)ccc2N2CCOCC2)o1 | 4 | -0.2 | -6 | 1.9 | 3 | -5 | -18 | nt | nt | nt
CCN(CC)C(=O)C1CCCN(C/C(C)=C/c2ccccc2)C1 (configuration not stated) | -8 | 0.7 | -9 | -0.1 | 0 | 7 | 2 | 9 | 11 | -10
FC(F)(F)c1nnc(N2CCN(c3ccc(Cl)cc3)CC2)s1 | -5 | -0.2 | 6 | 0.5 | -2 | -10 | -4 | 13 | 11 | 0.5
Cc1nc2cc(NC(=O)N3CCN(c4ccccn4)CC3)ccc2o1 | 0 | 0.5 | 24 | -1.2 | 2 | -4 | -1 | nt | nt | nt
COc1ccc(C(C(=O)NC2CCCC2)N(Cc2ccc(F)cc2)C(=O)c2ccn[nH]2)cc1OC (configuration not stated) | 0 | 0.8 | 0 | 1.5 | nt | -5 | -1 | -2 | 5 | -9.1
Nc1ccc2nc(NC(=O)C3CCCCC3)sc2c1 | 0 | -2.4 | -27 | 1.8 | -3 | 9 | 99* | -9 | -6 | -3.5
COc1ccc(C(=O)c2c(C)c3ccccc3n2CC(O)CNC(C)C)cc1 (configuration not stated) | 44* | 0.4 | -20 | 0.9 | 102* | 42 | -20 | -2 | -4 | 3.2
O=c1c2cn[nH]c2nc(SCc2ccc3c(c2)OCCO3)n1-c1ccccc1 | 5 | -0.7 | 9 | 2.1 | -8 | 1 | 6 | nt | nt | nt
CCN(CC(=O)Nc1ccc(OC)cc1)C(=O)CSCc1c(C)noc1C | -4 | 1.1 | nt | 3.7 | 2 | nt | -8 | 15 | 2 | 2.7
CCOc1ccc(OCCOCCNCCOC)cc1 | 9 | 2.5 | 3 | -4.5 | -3 | -6 | 1 | nt | nt | nt
CC(=O)N1CCSc2ccc(S(=O)(=O)N3CCC(C)CC3)cc21 | -1 | 0.5 | 20 | 3.8 | 0 | 8 | -12 | 3 | 6 | 4.3
Cc1ccc(C2C(C#N)=C(N)SC(N)=C2C#N)c(C)c1 | -69 | -0.3 | 6 | -14 | -1 | -7 | 0 | nt | nt | nt
CC(C)(C)OC(=O)N1CCCC1C(=O)NC(Cc1ccccc1)C(=O)O (configuration not stated) | 0 | -1.6 | 1 | 1.8 | -1 | -11 | -2 | nt | nt | nt
NNC(=O)c1cc2c(s1)-c1cc(Cl)ccc1SC2 | -22 | -1.0 | 16 | 4.3 | 3 | 5 | -17 | -11 | -3 | 2.5
O=C(CN(Cc1ccc(F)cc1)C(=O)CCC(=O)Nc1ccccn1)NCc1ccc(F)cc1 | 9 | 0.9 | -12 | 0.6 | -16 | 17 | nt | -11 | 1 | 2.3
COc1ccccc1OCC(=O)N1CC2(C)CC1CC(C)(C)C2 (configuration not stated) | -2 | -0.7 | -2 | 1.5 | 0 | -5 | 0 | nt | nt | nt
CN(C)CCCNS(=O)(=O)c1ccc(NC2CCCCCC2)c([N+](=O)[O-])c1 | -3 | 0.1 | -9 | -2.5 | 85* | 46 | -4 | -4 | -5 | 9.5
Fc1ccc(Br)cc1C1C=C(c2ccc(Br)cc2)Nc2ncnn21 (configuration not stated) | -1 | -0.8 | 25 | 0.6 | 3 | 9 | 90* | -30* | -18* | 9.0*
COc1ccc(/C=C/C(=O)OCC(=O)Nc2ccc(N3CCOCC3)cc2)cc1 | 2 | 0.3 | 3 | 0.5 | 1 | -8 | -17 | 17 | 10 | 3.4
COc1ccc(NC(=O)C(c2ccccc2)c2ccccc2)cn1 | -11 | 0.7 | ? | -5.1 | 2 | 11 | -1 | -13 | -33 | -8.4
COc1ccccc1NC(=O)Cn1c(C)nc2c(sc(=S)n2Cc2ccco2)c1=O | 6 | -0.7 | 16 | -0.9 | 3 | 28 | 1 | 6 | 2 | 16
COc1ccccc1CNC(=O)Cc1ccc(OC)c(OC)c1 | -5 | -0.5 | -6 | -2.9 | -3 | -9 | 4 | 6 | 6 | -0.4
COc1ccccc1C(CNC(=O)c1ccc(S(=O)(=O)NCc2ccco2)cc1)N(C)C (configuration not stated) | -1 | 0.0 | -2 | -1.4 | -6 | -7 | 0 | nt | nt | nt
CCN(CC)CCn1c(OC)cc(=O)[nH]c1=O | 3 | 1.1 | 32 | 4.1 | -3 | -1 | -17 | nt | nt | nt
CC(/C=N/NC(=O)c1cc(-c2ccc(C)s2)[nH]n1)=C\c1ccccc1 | -7 | -0.2 | 11 | -1.6 | 20 | -45 | -2 | -2 | 10 | 0.0

3 neighbouring compounds out of the list so far, for reference:
SMILES | Beta2AR agonist | Bfl-1 A1 inh | Calb FLC | LANA-H2A inh | Beta cell apopt | T cruzi repl | ALR H2O2 inh | rRNA inh HTS | rRNA inh HTS OD600 | rRNA inh HTS RFP
CCOc1cc(C)c(Cl)cc1S(=O)(=O)NCc1ccc2c(c1)OCO2 | 3 | -0.1 | -3 | 2.1 | 2 | 2 | nt | nt | nt | nt
O=C(NNC(=S)NC1CC2C=CC1C2)c1ccncc1 (configuration not stated) | -8 | -0.4 | -2 | 11 | -6 | -10 | 16 | 4 | 16 | 0.7
Cc1nnc(SCC(=O)Nc2cc(C(F)(F)F)ccc2N2CCOCC2)o1 | 4 | -0.2 | -6 | 1.9 | 3 | -5 | -18 | nt | nt | nt
